# gsp antagonist: antagonizes gsp, the McCune-Albright syndrome mutation; gsp-mutant cells, cAMP HTRF, 30 min; control for the full effect not named in the record; 0.4% of 340,000 active; AID 624288; Potency, µM (titrated, usually from 76.9 µM), for the others: top-dose activity change, negative = inhibition, most hits filed as inhibitors; active = falling curve of any shape with a large fitted effect; inconclusive = falling curve, mostly with a smaller effect; inactive = flat or rising curve; cell line not stated here;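 note: intracellular cAMP measured with PDE inhibitor Ro 20-1724 present during compound exposure; potency is the fitted concentration of half-maximal effect; % is set by controls: 0 for no effect and ±100 for the full control effect; nearly all actives have a fitted effect of over 65% in size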
#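 Cells, 2000/well, grown 16–24 h in DMEM 10% FBS with 0.5 mg/ml G418, then compounds plus […] (300 uM addition stock), 30 min at 37C. cAMP read by HTRF (cAMP-d2 and anti-cAMP antibody-K in lysis buffer) after 30 min RT.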
# Menin MLL FP FL: menin-MLL binding inhibition, fluorescein peptide | Fluorescence polarization, fluorescein-MLL peptide displacement from menin | FP activity change, % at 61.4 µM | 290,000 tested, under 10 active | AID 1766; inconclusive = falling polarisation curve, or a change in total fluorescence; inactive = total fluorescence flat and polarisation flat or rising; no compound was filed as active; the % refers to the polarisation; negative = inhibition;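 note: % of control where 0% means no effect; inhibitors lower the polarisation; unlabelled MLL peptide was the positive control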
# Sfp inh: Sfp phosphopantetheinyl transferase inhibition; Q9F4F7; Biochemical Sfp PPTase activity, qHTS; Potency, µM, inactives show max response, negative = inhibition, usual class: inhibitors; 3.5% of 310,000 active; active = well fitted inhibition curve with a large enough effect; inconclusive = small, poorly fitted or top-dose-only effect, or another doubt; inactive = no such curve, though single readings can be large or run the other way;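 note: the enzyme is Sfp with the accession as filed and its product quenches rhodamine fluorescence; potency is the fitted concentration of half-maximal effect; 0% = enzyme reaction without inhibitor and -100% = no enzyme wells; top concentration of the series not given in the record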
#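 Sfp 15 nM + cpd, 15 min RT; start w/ rhodamine-CoA 5 uM, BHQ-2-YbbR 12.5 uM (final); 50 mM Hepes pH 7.6, 10 mM MgCl2, 0.01% NP-40, 0.01% BSA; read 525/598 nm at 0 and 30 min.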
# CtBP-E1A inh: inhibitors of CtBP/E1A interaction; AID 651724; 0.49% of 340,000 active; activity change, % (concentration not given with the values); AlphaScreen GST-E1A/His-CtBP binding, 1536-well; stronger effect = lower value; control for the full effect not named in the record; in the data active means activity change below about -65%; inconclusive means about -30% to -65%; inactive means above about -30%; note: % is set by controls: 0 for no effect and ±100 for the full control effect
#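 GST-E1A and His-tagged CtBP (125 nM each as 5X stock) were preincubated with pin-transferred compound for 2 h at 37 °C in the dark, then glutathione donor and nickel acceptor beads were added for 1 h before AlphaScreen reading.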
# gsp agonist: gsp mutant agonism; gsp mutant cells, cAMP HTRF, 30 min; control for the full effect not named in the record; Potency, µM (doses to about 76.9 µM), for inactives: at the highest dose activation (cAMP increase), hits mostly activators; 0.13% of 340,000 active; AID 624287; active = well fitted activation curve with a large enough effect; inconclusive = small, poorly fitted or top-dose-only effect, or another doubt; inactive = no such curve, though single readings can be large or run the other way; cell line not stated here;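 note: phosphodiesterase inhibitor Ro 20-1724 added with compounds to block cAMP breakdown; potency is the fitted concentration of half-maximal effect; nearly all actives have a fitted effect of over 60% in size; about a fifth of the inactives were tested at one dose only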
#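 Cells stably selected in G418 were plated at 2000/well, grown 16-24 hr, then given compounds in DMSO with the PDE inhibitor […] (300 uM solution added) for 30 min at 37C; cAMP was read by HTRF.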
# TRPV1 PAM: potentiators of human vanilloid receptor 1 (TRPV1); Q8NER1; potentiation, % at 8.33 µM; 0.02% of 320,000 active; TRPV1-expressing cells, Fluo-8 calcium influx, capsaicin EC20 potentiation; host cell line not named in the record; control for the full effect not named in the record; AID 540277; active means potentiation above 80%; inconclusive means 30% to 80%; inactive means below 30%; note: 0% is about no effect
# Target sequence (Q8NER1 whole entry, looked up): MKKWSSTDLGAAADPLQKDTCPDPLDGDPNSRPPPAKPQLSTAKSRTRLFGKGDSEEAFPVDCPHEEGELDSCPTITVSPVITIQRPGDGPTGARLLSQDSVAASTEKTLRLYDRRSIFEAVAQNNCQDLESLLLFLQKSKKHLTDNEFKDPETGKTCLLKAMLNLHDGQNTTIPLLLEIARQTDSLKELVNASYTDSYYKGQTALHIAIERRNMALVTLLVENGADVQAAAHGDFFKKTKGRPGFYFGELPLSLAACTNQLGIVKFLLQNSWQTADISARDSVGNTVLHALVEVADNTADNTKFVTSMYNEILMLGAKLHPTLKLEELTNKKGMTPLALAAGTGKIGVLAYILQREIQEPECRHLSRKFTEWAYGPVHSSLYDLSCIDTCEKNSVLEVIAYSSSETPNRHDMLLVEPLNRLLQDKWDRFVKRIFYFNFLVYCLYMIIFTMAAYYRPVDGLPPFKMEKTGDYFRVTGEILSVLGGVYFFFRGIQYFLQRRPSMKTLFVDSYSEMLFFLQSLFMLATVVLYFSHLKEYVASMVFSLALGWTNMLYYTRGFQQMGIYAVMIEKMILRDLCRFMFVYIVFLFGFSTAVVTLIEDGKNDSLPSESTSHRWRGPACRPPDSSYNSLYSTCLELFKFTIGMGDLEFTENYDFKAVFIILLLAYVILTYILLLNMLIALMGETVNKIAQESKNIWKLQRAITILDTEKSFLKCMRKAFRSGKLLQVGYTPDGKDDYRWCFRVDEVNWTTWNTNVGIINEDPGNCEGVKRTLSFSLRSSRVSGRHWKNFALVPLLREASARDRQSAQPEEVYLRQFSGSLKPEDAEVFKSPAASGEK
#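 TRPV1-expressing cells were cultured overnight at 35.5C and loaded with Fluo-8 calcium dye for 40 to 90 min at room temperature. After a 10 s baseline, compound was added and calcium influx was read kinetically for 3 min (ex 480/em 520 nm).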
# ClpP mod: qHTS Assay for Activators of ClpP; ATP-dependent Clp protease proteolytic subunit (Bacillus subtilis (strain 168)), P80244; purified B. subtilis ClpP, FRET peptide cleavage, 20 min; Potency, µM (top dose mostly 57.5 µM), for the others: top-dose activity change, negative = active; 1.9% of 340,000 active; AID 651965, 2013; active = well fitted falling curve with a large enough effect; inconclusive = small, poorly fitted or top-dose-only effect; inactive = no such curve, though single readings can be large or run the other way; note: potency is the fitted concentration of half-maximal effect; the source files actives as falling curves though it sought activators and does not explain the sign; nearly all actives have a fitted effect of over 65% in size; many hits overshoot -100%
# Target sequence (P80244 whole entry, looked up): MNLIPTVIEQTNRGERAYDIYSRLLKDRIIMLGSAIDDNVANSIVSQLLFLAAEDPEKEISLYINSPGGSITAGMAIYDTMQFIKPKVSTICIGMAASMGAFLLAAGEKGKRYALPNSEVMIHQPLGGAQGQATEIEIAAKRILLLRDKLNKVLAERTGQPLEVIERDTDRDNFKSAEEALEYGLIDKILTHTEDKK
#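 ClpP 10 microg/mL final, pH 8 Tris/KCl buffer with BSA, glycerol, Tween-20; compound pinned in; FRET-FV substrate; RT 20 min; Ex320/Em430; ΔFRET vs ADEP 5.8 microM, DMSO, no enzyme.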
# Active calls of the source: *; ? = inconclusive; · = not tested or not shown; & = joins results of further samples; [ ] = dose if it differs, or a comment.
# Below each SMILES: CtBP-E1A inh | TRPV1 PAM | ClpP mod | Sfp inh | gsp agonist | Menin MLL FP FL | gsp antagonist
COc1cccc(N2CCN(c3ccc4nnc(CCC(=O)Nc5cccc(C(C)=O)c5)n4n3)CC2)c1
    2 | 8 | 0.1% | 8% | 3% | 0.3 | 10%
Cc1ccc(/C=C2/C(=O)c3ccc(C(=O)O)cc3C2=O)o1
    5 | -5 | -1.7% | 13µM* | 26%[15.4 µM] | ? | -40%
CCOc1ccc(N(CC(=O)N2CCOCC2)S(=O)(=O)c2ccc(SC)cc2)cc1
    0 | -5 | · | 0% | 4%[15.4 µM] | -1.3 | -3%
CCOCCc1nnc(NC(=O)C2CC(=O)N(c3ccc(OCC)cc3)C2)s1 (stereo not given)
    -1 | 5 | · | 3% | 9%[15.4 µM] | 1.4 | -2%
Cn1c(N)c(C(=O)COC(=O)c2ccc3c(c2)C(=O)N(c2ccc(Cl)cc2)C3=O)c(=O)n(C)c1=O
    -5 | 16 | -1.4% | -1% | 16%[15.4 µM] | -0.7 | 3%
COc1ccc(CN(C)C(=O)C(Cc2ccccc2)NC(=O)c2ccccc2)cc1F (stereo not given)
    -1 | -26 | 2.2% | · | -1% | · | -24%
COc1cccc(-c2nc(CS(=O)(=O)CC(=O)NCCCN3CCOCC3)c(C)o2)c1
    3 | -4 | -9.4% | 16% | -14% | 3.5 | 4%
Cc1c(C(=O)O)c(=O)n(-c2ccccc2)n1-c1ccccc1
    · | 3 | -4.6% | 27% | 3% | -7.0 | 7%
COc1ccc(OC)c(/C=N/Nc2cc(C)nc(N3CCOCC3)n2)c1
    -1 | 14 | · | 7% | 0% | -0.1 | -28%
O=C(NNC(=O)c1cccs1)c1ccc(Cl)c(S(=O)(=O)N2CCCC2)c1
    -4 | · | 0.3% | · | 29% | · | 20%
CCOC(=O)c1c(C)[nH]c(C)c1C(=O)COc1ncnc2cc([N+](=O)[O-])ccc12
    -70* | 26 | · | 23% | 1%[15.4 µM] | -0.3 | 4%
CC(CNc1nc2ccc(Cl)cc2n2cnnc12)c1ccccc1 (stereo not given)
    3 | -3 | 3.8% | -9% | ? | 8.5 | 18%
Cc1nn(CCCC(=O)NCCc2ccccc2)c(=O)c2nn(-c3ccccc3)c(C)c12
    -9 | -8 | -9.1% | 8% | -5% | · | -13%
COc1ccc(S(=O)(=O)N(C)CC(=O)NCc2cccnc2)cc1C
    6 | -20 | -23% | 12% | -57%[inhibitor] | 3.8 | 6%
C[C@@H]1CN([C@@H](C)CO)C(=O)c2cc(NC(=O)CCC(F)(F)F)ccc2O[C@H]1CN(C)S(=O)(=O)c1ccc(Cl)cc1
    0 | · | -0.9% | · | -71%[inhibitor] | · | -8%
C(#CCN1CCOCC1)CCCN1CCOCC1
    0 | · | · | · | -24% | · | 8%
CC(=O)c1ccc(NC(=O)CSC(=S)N2CCCC2)cc1
    5 | -21 | 3.8% | ? | 5% | 3.6 | 2%
COc1cccc(NC(=S)NCCCN2CCOCC2)c1
    6 | 3 | -0.1% | -4% | -30% | 3.6 | 5%
O=C(CCCN=C1NS(=O)(=O)c2ccccc21)OCC(=O)N1CCc2ccccc21
    -2 | 2 | 0.1% | 9% | -32%[inhibitor] | 2.4 | 20%
O=C(Cc1ccc(S(=O)(=O)N2CCOCC2)s1)NCCc1ccc(F)cc1
    2 | -9 | -13% | · | -5% | · | 6%
Cc1ccc(N(C(=O)Cc2cccs2)C2C=CS(=O)(=O)C2)cc1Cl (stereo not given)
    · | 9 | 3.8% | -5% | -39% | -0.4 | 4%
O=C1OC(c2ccccc2)=N/C1=C/c1cccc(OC(=O)c2cccs2)c1
    0 | · | -16% | · | -13% | · | 10%
Cn1cc(Cl)c(C(=O)Nc2cccc(Cl)c2Cl)n1
    11 | 13 | 4.8% | 2% | -31%[inhibitor] | 0.9 | 4%
COc1ccccc1-c1cc(C(F)(F)F)nc(N2CCOCC2)n1
    71 | 15 | -30% | -1% | 17% | 3.9 | 2%
Cc1cc2cc(C=O)c(Cl)nc2cc1C
    -8 | 21 | -2.5% | 32µM* | -21% | -0.3 | 6%
O=C(COc1ccc(Br)cc1)N/N=C1/SCC(=O)N1Cc1ccccc1
    7 | -5 | -1.0% | -2% | -52%[inhibitor] | -4.6 | -4%
CCOC(=O)N1CCC(Nc2c(NCCN3CCN(c4ccccc4F)CC3)c(=O)c2=O)CC1
    -2&0 | -5 | 1.2%&-1.0% | 13% | -59%&-25% | 1.4 | 13%&9%
Cc1ccc(O)c(NC(=O)CSc2ccc(Cl)cc2)c1
    -3 | 0 | -4.5% | 5% | ? | -2.2 | 3%
CN(C(=O)CSc1nnnn1-c1ccc(O)cc1)C1CCS(=O)(=O)C1 (stereo not given)
    -17 | 9 | · | 13% | -12%[15.4 µM] | -5.2 | 12%
Nc1ncccc1OCc1ccc(Cl)c(Cl)c1
    -19 | -22 | · | -12% | -35%[inhibitor] | 1.5 | 0%
CC1=C(C(=O)Nc2ccccc2F)C(c2cccs2)C2=C(CCCC2=O)N1 (stereo not given)
    · | 10 | -20% | 14% | -18% | 4.1 | -1%
CCOc1ccc(-c2c(C#N)c(N)nc3c2c(=O)n(C)c(=O)n3C)cc1OC
    -1 | 2 | 0.2% | 19% | 10% | 1.5 | 21%
CS(=O)(=O)c1ccc(Cl)c(C(=O)Nc2ccc3nc(N4CCOCC4)sc3c2)c1
    -3 | 6 | 0.4% | · | -1% | · | -29%
CCN(CC)C(=O)C1CCCN(Cc2sccc2C)C1 (stereo not given)
    4 | -11 | -2.0% | -13% | ? | -1.4 | 3%
COc1cc(=O)[nH]c(SC(C)C(=O)Nc2nc3c(s2)CCCC3)n1 (stereo not given)
    0 | 4 | · | 19% | -1%[15.4 µM] | 3.4 | -15%
Nc1ccccc1NC1CCCCC1
    -27 | -11 | -12% | -19% | -8%[15.4 µM] | -9.1 | 3%
NC(=S)NNC(=O)c1cc(C(F)(F)F)cc(C(F)(F)F)c1
    -5 | -5 | · | 25% | -4%[15.4 µM] | 2.4 | 6%
CC(=O)CCc1c[nH]c2c(C(=O)O)cccc12
    3 | -11 | -4.3% | 15% | -32%[inhibitor] | 0.1 | 4%
O=C(CN1C(=O)c2ccccc2S1(=O)=O)c1ccc(F)cc1
    · | 14 | -0.5% | 8% | -15% | 0.0 | -3%
COCCCNC(=O)c1ccc2c(c1)ncn2-c1ccc(C)cc1C
    -2 | 4 | -7.0% | 1% | -19% | -4.3 | 6%
Cc1ccc(C)n1-c1cccc(N)c1
    · | 5 | · | 9% | · | 2.9 | ·
CCOc1ccccc1-c1nc(CN2CCC(C(=O)N3CCOCC3)CC2)c(C)o1
    4 | -17 | -6.8% | 11% | 0% | · | 1%
CC(=O)Nc1ccc(NC(=O)C(C)OC(=O)C2CCN(S(=O)(=O)c3cccs3)CC2)cc1 (stereo not given)
    -22 | 13 | · | 11% | -7%[15.4 µM] | 0.4 | 4%
O=C1CCc2cc(S(=O)(=O)N3CCC(C(=O)NC4CCCCCCC4)CC3)ccc2N1
    0 | -4 | -1.8% | 36%[activator] | 9% | -1.0 | -13%
CC(=O)c1ccc(C(=O)N2CCCC(N3CCN(c4ccc(F)cc4)CC3)C2)s1 (stereo not given)
    -5 | -18 | -1.5% | -1% | 7%[15.4 µM] | · | -6%
Cc1[nH]c(=O)nc(NN=Cc2ccc(Cl)cc2)c1C(=O)Nc1ccc(Cl)cc1
    -7 | · | -1.3% | · | -52%[inhibitor] | · | 5%
Nc1cc(C(=O)N2CCN(c3cccc(Cl)c3)CC2)ccc1N1CC2CC(C1)c1cccc(=O)n1C2 (stereo not given)
    2 | · | 0.6% | · | 11% | · | ·
CCOC(=O)CCC(=O)Nc1ccc(S(=O)(=O)N2CCCC2)cc1
    -8 | 7 | -0.5% | 21% | -10% | -2.0 | 3%
COc1ccccc1NC(=O)NCCCN1CCN(c2cccc(Cl)c2)CC1
    -16 | 2 | 0.2% | -1% | -41%[inhibitor] | 4.6 | 3%
COc1cc(/C=C2\C(=O)N(c3ccc(NC(C)=O)cc3)N=C2c2ccccc2)ccc1O
    -1 | 12 | -1.0% | 11% | -24% | 14 | -33%
CCc1cccc(C)c1NC(=O)COn1nnc2ccc(C(F)(F)F)cc21
    8 | -7 | -2.8% | 12% | -29% | -2.6 | -7%
CCc1ccc(NC(=O)CCc2c(C)nn(-c3ccc(N4CCCCC4)nn3)c2C)cc1
    -9 | 4 | -3.4% | 11% | 11% | -7.3 | -5%
CCC1(c2ccccc2)NC(=O)N(CC(=O)NC2CCCCCC2)C1=O (stereo not given)
    5 | · | 0.6% | · | -35% | · | 7%
CCCCNS(=O)(=O)c1ccc(NS(=O)(=O)c2c(C)cc(C)cc2C)cc1
    27 | 5 | 0.3% | -3% | -23% | -1.0 | 2%
FC(F)(F)c1cc(-c2ccco2)nc2ncnn12
    -1 | 17 | 28µM* | -9% | -17% | 1.7 | 2%
COc1ccc(-c2cc(-c3n[nH]c(=S)n3-c3cc(OC)ccc3OC)[nH]n2)cc1
    2 | -3 | -0.7% | ? | -16% | · | ?
Cc1ccn2c(Nc3ccccc3)c(-c3ccccn3)nc2c1
    -78* | -12 | · | -6% | -8%[15.4 µM] | -4.9 | -1%
Cc1nn(-c2ccccc2)c(C)c1NC(=O)COC(=O)CCOc1ccccc1
    2 | 8 | -1.2% | · | -7% | · | 3%
O=S(=O)(c1cccc2cccnc12)N1CCCc2ccccc21
    0 | 10 | -0.7% | 11% | -27% | -1.7 | -1%
Cc1ccc(NC(=O)CCc2c(C)nn(-c3ccc(N4CCCCC4)nn3)c2C)cc1C
    0 | -7 | -3.3% | 20% | ? | -0.7 | ?
C[C@H](CO)N1C[C@H](C)[C@@H](CN(C)Cc2ccc(Oc3ccccc3)cc2)Oc2c(NS(=O)(=O)c3cn(C)cn3)cccc2C1=O
    -1 | · | -18% | · | · | · | -9%
COc1cc(C(=O)OC2CCCCC2=O)cc(OC)c1C (stereo not given)
    1 | 3 | -21% | ? | -1% | 3.9 | -10%
Cc1ccc(CCNC(=O)C2CCCN2S(=O)(=O)c2ccc3c(c2)CCC(=O)N3)cc1 (stereo not given)
    4 | 19 | 2.2% | 7% | -8% | 1.0 | 2%
